Screening data as filed in PubChem.
Ba CapD inh = blocks the Bacillus anthracis CapD enzyme | hit rate 0.23% among 140,000 | AID 492967 | purified CapD enzyme, fluorescence intensity read-out; active compounds read low; some hits fall short of the stated cut | z-score (test concentration not listed);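 active = z-score under -4 in either of two replicates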;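 note: stock transfer was 100 nL into about 40 µL; score is relative to mean and spread of the plate; one replicate is shown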
AID504770 = growth inhibitors of E. coli YBA685 in a screen for V. cholerae RctB (chromosome II replication) inhibitors. z-score (test concentration not listed). E. coli YBA685 rctB-dependent plasmid, OD600 growth, 3 h; active compounds read low. hit rate 0.27% among 130,000. AID 504770;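 active = z-score under -2 on both plates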;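 note: wells of about 30 µL received 100 nL stock; score is relative to mean and SD of the test wells; the first replicate is given; strong numbers were not always called active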
* = called active by the depositor; . = no result given. The order is random; 0.41% or so of the library scored in one or more.

SMILES	Ba CapD inh	AID504770
CC(=O)N1CCc2cc(Br)cc(S(=O)(=O)N3CCCC3)c21	-0.79	-1.1
Cc1ccc(C)c(C(=O)OCC(=O)N(C)c2ccccc2)c1	-0.4	-1.2
Cc1ccccc1OCC(=O)N1CCOCC1	.	-0.65
Cc1ccccc1Cn1c2ccccc2c2cnn(CC(=O)NCC3CCCO3)c(=O)c21 (stereo not drawn)	5.2	0.1
O=C1OC2(CCCCC2)OC(=O)C1=Cc1ccoc1	0.65	0.35
O=C(CN1CCN(Cc2cccc(Cl)c2)C1=O)N1CCCC1	-0.12	1.1
O=C(CSc1nc2ccccc2n1CCc1ccccc1)N1CCOCC1	0.35	-0.1
N#C/C(=N\Nc1ccc(C(=O)O)cc1)C(=O)c1ccccc1	.	0.4
C=CCn1c(=S)[nH]c2scc(-c3ccccc3Cl)c2c1=O	-1.4	.
CCOc1cc(C=C2C(=O)N(C)C(=O)N(C)C2=O)ccc1OCCOc1ccc(C)cc1	0.14	.
CCN1CCN(CCC(=O)Nc2ccccc2)CC1	-0.33	2
Cc1ccc(C(N)=S)c(=O)[nH]1	33	-0.2
COc1ccc2cc(C(C)c3nc4ccccc4n3C)ccc2c1 (stereo not drawn)	0.14	0.65
CCN(CC)C(=O)Cn1ncc2c3ccccc3n(Cc3ccc(F)cc3)c2c1=O	17	-0.75
CC(=O)c1ccc(N2CCN(C(=O)OCc3ccccc3OC(F)(F)F)CC2)cc1	1.2	.
NC(CCC(F)(F)F)C(=O)O (stereo not drawn)	2.5	0.55
Clc1ccc(-c2cn3nc4c(nc3n2)CCCC4)cc1	-1.2	.
O=C(O)c1ccccc1C(=O)n1c(COc2ccc(Cl)cc2Cl)nc2ccccc21	-0.73	-1.9
CCCCCNC(=O)c1c[nH]c2ccc(S(=O)(=O)N(C)c3ccc(Br)cc3)cc2c1=O	1.1	.
Nc1sc2c(c1C(=O)Nc1ccc(Cl)cc1)CCC2	-0.005	-0.05

Part of the list above, with each value named:
NC(CCC(F)(F)F)C(=O)O (stereo not drawn)
  Ba CapD inh: 2.5	AID504770: 0.55

O=C(CSc1nc2ccccc2n1CCc1ccccc1)N1CCOCC1
  Ba CapD inh: 0.35	AID504770: -0.1

The list continues:
SMILES	Ba CapD inh	AID504770
Cc1ccc2oc3nc(C)c(C(=O)NCc4ccc(Cl)cc4)cc3c(=O)c2c1	0.035	.
O=C(CSc1nnc2n1CCCCC2)Nc1ccnn1C1CCCC1	.	-2.3
N#CC1(C#N)[C@H](c2ccc(Cl)cc2Cl)[C@@H](C(=O)c2ccccc2)N2c3ccccc3C=C[C@@H]21	-0.2	.
Cn1cnnc1SC1CCCCC1NS(=O)(=O)c1ccccc1 (stereo not drawn)	0.74	0.45
Cc1csc(NC(=O)CN2C(=O)COc3ccc(Cl)cc32)n1	.	-0.35
O=C(c1ccco1)N1N=C2c3ccccc3CCC2C1c1ccc(F)cc1 (stereo not drawn)	-0.015	0.75
CN(Cc1ccco1)C(=O)C1CCC(=O)N1Cc1ccc(F)cc1 (stereo not drawn)	-0.33	2.1
C=CCN(CC=C)C(=O)Cc1ccccc1OC	0.69	-0.55
O=C1CCCN1CCCNc1nc(-c2cccc(Cl)c2)c2c(n1)-c1ccccc1OC2	0.21	-1.1
Cc1cc(O)cc(O)c1C(=O)COc1ccccc1	-0.24	0.25
CC(C)CN(CC(C)C)C(=O)CSc1nnc2c(n1)[nH]c1ccccc12	-0.09	.
CCCN(CCC)c1cccc(C(=O)O)n1	0.12	0.2
CCOC(=O)/C=C1\NC(=O)C(C)S1 (stereo not drawn)	0.005	1.6
CCN(CC)C(=S)Oc1ccc(C(=O)Nc2cccc3ccccc23)cc1	0.37	0.1
COc1ccc(OC)c(S(=O)(=O)N2C(C)CCCC2C)c1 (stereo not drawn)	0.49	-0.35
CC(C)(C)C(=O)Nc1ccc(C(=O)Oc2ccccc2)c(O)c1	.	-0.65
CC1(C)CC(=O)C(Sc2ncnc3nc[nH]c23)C(=O)C1	-0.3	.
COCCn1c(=O)sc2ccccc2c1=O	0.64	1
CCOC(=O)C1=c2s/c(=C/c3ccc(Cl)cc3)c(=O)n2C(N)=C(C#N)C1c1ccc(Cl)cc1 (stereo not drawn)	-0.47	.
c1ccc(-n2c(SCc3nc4ccccc4o3)nnc2C2CC2)cc1	.	-0.6

In the list so far, 4 contain a COOH group.
SMILES	Ba CapD inh	AID504770
N#C/C(=N\Nc1ccc(C(=O)O)cc1)C(=O)c1ccccc1	.	0.4
NC(CCC(F)(F)F)C(=O)O (stereo not drawn)	2.5	0.55
O=C(O)c1ccccc1C(=O)n1c(COc2ccc(Cl)cc2Cl)nc2ccccc21	-0.73	-1.9
CCCN(CCC)c1cccc(C(=O)O)n1	0.12	0.2

(further entries)
SMILES	Ba CapD inh	AID504770
CCOc1ccc(Nc2nc(O)c(N=Nc3ccc(C(=O)O)cc3)s2)cc1	.	1.4
COc1cc(C2=NOC(C(=O)N3CCN(c4ccc(F)cc4)CC3)C2)cc(OC)c1OC (stereo not drawn)	-0.53	0.5
Cc1ccc(-c2noc(-c3c[nH]c4ccc(S(=O)(=O)NC(C)C)cc4c3=O)n2)cc1	11	0.35
CNC(=O)C(Nc1c([N+](=O)[O-])cc(C(F)(F)F)cc1[N+](=O)[O-])C(C)(C)C (stereo not drawn)	-0.81	.
CCOc1ccc2cc(C3CC(c4ccc(Br)cc4)=NN3C(=O)CCC(=O)O)c(Cl)nc2c1 (stereo not drawn)	0.15	.
C=CCn1c(C2COc3ccccc3O2)n[nH]c1=S (stereo not drawn)	.	0.65
C/C(COc1ccccc1O)=N\NC(N)=O	.	-0.15
Cc1cccc(C)c1NC(=O)/C=C/c1cccs1	-1.9	-0.35
Cc1ccc(NC(=O)c2nc(C)n(-c3cc(Cl)cc(Cl)c3)n2)cc1	0.18	.
CCN(CC)C1=NC(=O)C(CC(=O)Nc2cccc(C(=O)OCC(=O)N(C)C3(C#N)CCCCC3)c2)S1 (stereo not drawn)	.	-0.65
O=C(NC1CCS(=O)(=O)C1)/C(=C/c1ccccc1)NC(=O)c1ccccc1 (stereo not drawn)	-0.045	-0.5
CCOc1nc2ccccc2nc1OCC	0.13	2
CCOc1nnc(NS(=O)(=O)c2ccc(N)cc2)o1	.	-0.1
c1ccc(-c2nnn3c2nc(N2CCOCC2)c2ccccc23)cc1	0.74	-0.4
COCCn1c(SCc2ccccc2)nnc1-c1c[nH]c2ccccc12	-0.64	-0.55
O=C(NCC1(c2ccccc2)CCCC1)c1cc2c(=O)[nH]c3ccccc3c2s1	0.56	-0.25
O=C(NC1CCCCCCC1)c1ccc(I)cc1	0.12	.
O=C1NC(=Nc2cccnc2)S/C1=C/c1ccc2c(c1)OCO2	-0.09	2.5
O=c1ccc(C(F)(F)F)c[nH]1	0.14	.
N#Cc1ccccc1NC(=O)COC(=O)C1(c2cccc(F)c2)CCCC1	0.15	-0.4

By substructure, those above with an aryl methoxy group (four)
SMILES	Ba CapD inh	AID504770
COc1ccc2cc(C(C)c3nc4ccccc4n3C)ccc2c1 (stereo not drawn)	0.14	0.65
C=CCN(CC=C)C(=O)Cc1ccccc1OC	0.69	-0.55
COc1ccc(OC)c(S(=O)(=O)N2C(C)CCCC2C)c1 (stereo not drawn)	0.49	-0.35
COc1cc(C2=NOC(C(=O)N3CCN(c4ccc(F)cc4)CC3)C2)cc(OC)c1OC (stereo not drawn)	-0.53	0.5

Next section.
SMILES	Ba CapD inh	AID504770
CCOc1ccccc1NC(=O)CSc1nncn1C(C)C	.	2
O=C1CCN(c2ccc(Cl)cc2)N1	-0.07	.
COC(=O)c1ccc(COc2cccc(Cl)c2)o1	79	0.05
O=C(CSc1nnc(-c2ccco2)n1C1CCCCC1)N1CCNC1=O	.	-2.2
O=C(Cc1ccsc1)NNC(=O)OCCSCc1ccc2nonc2c1	0.065	.
COc1nc(N)c(C#N)c(-c2ccc(C)cc2)c1C#N	.	2
Cc1ccc2c(c1)c1c3n2CCN(CCC(=O)O)C3CCC1 (stereo not drawn)	1.8	1.5
CCc1ccc(NC(=O)/C=N/O)cc1	-0.27	-0.8
COC(=O)c1cc(S(=O)(=O)NCCCN2CCN(c3ccccc3)CC2)c[nH]1	-1.7	-1.6
COc1ccc2cc3c(N)nn(C(=O)c4cccnc4)c3nc2c1	-0.6	-0.25
O=c1nc2n(-c3ccc(Cl)c(Cl)c3)c3ccccc3cc-2c(=O)[nH]1	0.66	.
NS(=O)(=O)c1cc2c(cc1Cl)NC(CC1CCCC1)NS2(=O)=O (stereo not drawn)	1.2	.
CCCn1c(=O)c2ccccc2n2c(SCC(=O)Nc3c(C)cc(C)cc3Cl)nnc12	.	1.5
COc1cnc(SC)n(C)c1=O	0.65	-0.85
C=CCN(CC=C)C(=O)C(C)Oc1ccc(Cl)cc1Cl (stereo not drawn)	0.1	0.5
COc1cc(OC)c(NS(=O)(=O)c2ccc(C)c(C(=O)Nc3nn[nH]n3)c2)cc1Cl	.	0.9
Cc1ccc(N2CCN(c3ccc(C)cc3)C2c2cccs2)cc1	23	0.25
N/C(=N/O)c1cnc2n(c1=O)CCS2	-0.17	1.1
COc1ccc(Nc2nc3nonc3nc2N2CCCCCC2)cc1	-2.6	-0.5
CN(C(=O)COC(=O)c1cccc(N2C(=O)c3ccccc3C2=O)c1)C1CCS(=O)(=O)C1 (stereo not drawn)	.	0.15
COc1ccccc1NC(=O)NCCCN1CCc2ccccc21	0.66	.
Cc1csc(-c2cc3c(ccc4ccccc43)oc2=O)n1	75	-0.85
C=C1SC(Nc2ccc(S(=O)(=O)N3CCCCC3)cc2)=NC12CCCCC2	0.49	.
Cc1cccc(NC(=O)CSc2nccn2-c2ccccc2)c1	-0.58	-0.55
CC(=O)c1ccc2c(c1)N(CCCN1CCC(CCO)CC1)c1ccccc1S2	3.5	.
CCNc1nc2cc(Cl)ccc2s1	0.41	0.25
c1csc(C2Nc3ccccc3-n3cccc32)c1 (stereo not drawn)	23	-0.1
O=S(=O)(NCc1ccc2c(c1)CCO2)c1ccccc1	0.4	-0.4
O=C(NCc1ccccc1)c1cc2ccccn2n1	2.8	0.25
O=C(NCc1cc(F)cc2c1OCOC2)c1cnc2ccccc2n1	0.15	1.7
CCOC(=O)CCN1C(=O)CN(C)CC1=O	.	-0.65
Nc1ccc(-n2nncc2C23CC4CC(CC(C4)C2)C3)cc1	.	-1
CCOC(=O)c1c(NC(=O)c2ccc(Cl)c([N+](=O)[O-])c2)sc(C(=O)Nc2ccccc2C(F)(F)F)c1C	-0.58	.
CSc1c(C#N)c(-c2ccc(Cl)cc2)nn1C	0.32	1.2
FC(F)(F)c1ccc(N2CCC(n3cccc3)CC2)nc1	0.04	-0.45
O=C(CC1=NS(=O)(=O)c2ccccc2N1)Nc1ccccc1	0.26	-1
Nc1ccc(N2CCCCC2)c(C(F)(F)F)c1	.	-1.1
O=C(c1ccccc1)c1cc(Cl)cc2c1NC(c1ccc(Br)cc1)C1CC(Sc3ccccc3[N+](=O)[O-])C(Cl)C21 (stereo not drawn)	-0.28	.
COc1cccc(N2CCN(C(=O)c3cnn4c3NC(c3ccc(OC)c(OC)c3)CC4C(F)(F)F)CC2)c1 (stereo not drawn)	0.52	.
O=C(O)/C=C/C(=O)NC1CCCC(C(F)(F)F)C1 (stereo not drawn)	0.42	-0.3
C=CCOc1ccc(CN2CCN(C(=O)OCCN(C/C=C/c3ccccc3)C(=O)OC(C)(C)C)CC2)cc1	-0.49	.
CC(C)CCn1c(=O)c2cccnc2n(CC(N)=O)c1=O	54	-0.6
Cc1ccc(C(=O)N2N=C(c3ccccc3)CC2c2ccc3c(c2)OCO3)cc1 (stereo not drawn)	0.29	.
Cc1ccc(NC(=O)c2oc3ccccc3c2NC(=O)C2CC2)cc1C	.	0.4
c1csc(-c2cn3ccsc3n2)c1	-0.17	-0.65
OCc1cc(-c2ccc(Cl)c(Cl)c2)no1	0.24	0.15
Cc1ccc(NC(=O)Nc2ccc3c(c2)C(=O)OC3)cc1Cl	0.46	.
O=C(CCN1C(=O)c2cccc3cccc(c23)C1=O)N1CCN(Cc2ccc3c(c2)OCO3)CC1	16	.
Cc1cc(CNC(=O)Nc2c(C)noc2C)c(C(F)(F)F)o1	-0.11	-0.45
Brc1ccc(OCc2cn3cccnc3n2)c(Br)c1	4.7	0.35
COc1cccc(OC)c1C(=O)Nc1ccc2c(c1)CCCN2C(=O)C1CC1	.	0.25
NC(=O)NC(=O)CC1Sc2ccccc2NC1=O (stereo not drawn)	.	1.7
CCOC(=O)c1sc(NC(=O)C=C(C)C)c(C#N)c1C	1.2	-0.5
CC(C)c1ccc(S(=O)(=O)N2CCN(C(=O)c3cc(-c4ccccc4)n[nH]3)CC2)cc1	-1.1	1.4
CCOC(=O)C1=C(C)N=c2s/c(=C3\C(=O)N(C)c4ccccc43)c(=O)n2C1c1ccccc1 (stereo not drawn)	0.38	.
CNC(=O)c1c(-c2ccccc2)oc2ccc(OC)cc12	.	-0.35
N#CC(=C1SCCS1)c1ccc(Cl)cc1	-0.33	0.1
Cc1[nH]c2ccccc2c1C(=O)COC(=O)C1CCC(=O)N1 (stereo not drawn)	-0.53	-0.25
COc1ccc(NC(C)=O)cc1NC(C)C(=O)NC(C)c1ccc(F)cc1 (stereo not drawn)	.	-0.15
Clc1ccc(-c2noc3ncnc(NC4CCCC4)c23)cc1	2.7	-0.35
Next section.
SMILES	Ba CapD inh	AID504770
CCc1nc2scc(-c3ccc(Br)cc3)c2c(=O)o1	-0.1	.
COc1ccc(Cl)cc1NC(=O)NCCSCc1ccco1	0.025	.
COc1nc(C)cc(C)c1C#N	-0.43	.
Cc1ccc(Nc2nn(CN3CCOCC3)c(=S)s2)cc1	.	-1

Some of these compounds in order of number of heavy atoms, rising:
SMILES	Ba CapD inh	AID504770
CCc1nc2scc(-c3ccc(Br)cc3)c2c(=O)o1	-0.1	.
Cc1ccc(Nc2nn(CN3CCOCC3)c(=S)s2)cc1	.	-1
COc1ccc(Cl)cc1NC(=O)NCCSCc1ccco1	0.025	.
